HSD17B inh – blocks hydroxysteroid 17-beta dehydrogenase activity; hit rate 7.6% among 75,000; Potency, µM (highest dose often 57.1 µM), for inactives: at the top dose activity change, negative = inhibition, most hits filed as inhibitors; recombinant HSD17B10, NADH fluorescence kinetic; many of its hits are not listed in these tables; active = well fitted inhibition curve with a large enough effect; inconclusive = small, poorly fitted or top-dose-only effect; inactive = no such curve, though single readings can be large or run the other way;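 note: the protocol describes HADH2 (HSD17B10) and not the HSD17B4 of the title; nearly all actives have a fitted effect of over 70% in size; most hits overshoot -100% by far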
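Activity followed as NADH fluorescence increase (ex 360, em 450 nm) every 30 seconds for 4 min, using final 90 uM beta-hydroxybutyryl CoA and 1 mM NAD+. Recombinant His-tagged enzyme, 20 nM, pH 9.0 Tris buffer, 15 min compound preincubation.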
An asterisk follows results filed as active; ? = inconclusive; [ ] = remark or other dose. % is set by controls: 0 for no effect and ±100 for the full control effect; potency is the fitted concentration of half-maximal effect. An excerpt. The share of hits here may be higher or lower than overall.

smiles	HSD17B inh
Cn1c(=O)c2cc(S(=O)(=O)NCCC(=O)N3CC=C(c4ccccc4)CC3)ccc2n(C)c1=O	1%
Clc1ccc(CN2C3=NCCN3c3ccccc32)cc1Cl	1%
CCCCCn1c(N2CCN(Cc3ccccc3)CC2)nc2c1c(=O)[nH]c(=O)n2C	5%
O=C1CCc2cc(S(=O)(=O)NCCC(=O)NC3CCN(Cc4ccccc4)CC3)ccc2N1	8%
Cc1cc(C)n(CC(O)CN2C(=O)NC(C)(C)C2=O)n1 (centres undefined)	2%
Cc1ccc(NC(=O)c2cc(-c3ccc(C)o3)nc3ccccc23)nc1	32µM*
CC(C)=CCC[C@](C)(O)C1CC=C(C)CC1 (some centres undefined)	5%
O=C(CCCc1nc(-c2ccccc2)no1)NCc1cccnc1	5%
Cc1cc(Cl)cc(C)c1OCC(=O)O	11%
O=C(c1cccs1)N1CCC(c2nc3ccccc3s2)CC1	-1%
CCn1c(=O)cc(SCC(=O)NCC2CCCO2)c2ccccc21 (centres undefined)	?
CCOC(=O)c1nnn(-c2nonc2-n2cccc2)c1CN1CCCCC1	-14%
CC1(C)CC(=O)C(=CN2CCN(C(=O)c3ccco3)CC2)C(=O)C1	2%
O=C(O)CCC(=O)N1CCOc2ccc(Cl)cc21	12%
CCCn1c(C)nc2c(NCCN(C)C)nc(C)nc21	19%
COc1ccc(-c2coc3c(OC)c(OC)cc(OC)c3c2=O)cc1	1%
COc1ccc(CCNc2nc(N3CCCCC3)nc(N3CCCCC3)n2)cc1OC	-9%
COc1cc(OC)cc(OCC(O)Cn2cnc(-c3ccccc3)c2)c1 (centres undefined)	7%
CCCc1nnc2n1N=C(c1ccc(OC)c(OC)c1)CS2	-5%
CC(=O)N1SC(N)=NC1c1ccccc1 (centres undefined)	10%
O=C(CSc1nnc(-c2ccccn2)n1Cc1ccco1)c1ccccc1	2%
Cc1nc2ccccc2nc1OCC(=O)NCc1ccc2c(c1)OCO2	-8%
CCc1ccc(CC)c(S(=O)(=O)Nc2ccc(C(=O)O)c(O)c2)c1	-4%
CCOC(=O)C1CCN(C(=O)c2ccc(Br)o2)CC1	-7%

A draw from above in order of formula weight, ascending.
smiles	HSD17B inh
CCOC(=O)C1CCN(C(=O)c2ccc(Br)o2)CC1	-7%
CCc1ccc(CC)c(S(=O)(=O)Nc2ccc(C(=O)O)c(O)c2)c1	-4%
COc1ccc(CCNc2nc(N3CCCCC3)nc(N3CCCCC3)n2)cc1OC	-9%

Following part
smiles	HSD17B inh
CCCCSc1nc2c(c(=O)[nH]c(=O)n2C)n1CCc1ccccc1	6%
COc1cccc(-n2nnc3c(=O)n(C/C=C/c4ccccc4)cnc32)c1	-16%
O=C(CSc1nnc(COc2ccc(Cl)cc2)n1Cc1ccco1)c1ccccc1F	-16%
O=Cc1cccc(Br)c1	4%
COC(=O)CC[C@@H](C)[C@H]1CC[C@H]2[C@@H]3CC[C@@H]4C[C@H](O)CC[C@]4(C)[C@H]3C[C@H](O)[C@]12C	10%
N#CCCn1c(=O)cnc2cnc(Oc3ccccc3)nc21	13%
COc1ccc(-n2c(=O)c(C)nc3cncnc32)cc1	?
CCn1nnc(NC(=O)COc2cc(C)ccc2C(C)C)n1	16%
CN(C)S(=O)(=O)c1ccc2nc(NC(=O)c3cccnc3)sc2c1	?
CCn1c(=O)cc(OCC(=O)N2CCN(C(=O)c3ccco3)CC2)c2ccccc21	-19%
CO[C@H]1COC(=O)[C@H](C)COC(=O)[C@@H](OCc2ccccc2)/C=C\[C@@H]1C	1%[11.4 µM]
C=CCn1c(CCC(=O)O)ccc1-c1ccccc1	32µM*

Molecules above that contain two or more sulfur atoms (two):
smiles	HSD17B inh
O=C(c1cccs1)N1CCC(c2nc3ccccc3s2)CC1	-1%
CN(C)S(=O)(=O)c1ccc2nc(NC(=O)c3cccnc3)sc2c1	?

Other records follow:
smiles	HSD17B inh
CC(=O)c1ccccc1[N+](=O)[O-]	-2%
O=C(CSc1nnc2ccccn12)Nc1ccccc1C(=O)NC1CC1	?
CC(C)c1ccc2oc(-c3cc(N)ccc3O)nc2c1	-20%
Cc1ccc(C2CC(c3cccc(Br)c3)Nc3nnnn32)cc1 (centres undefined)	-9%
Cn1c(CNc2nc(-c3ccccc3)cs2)nnc1SCC(=O)c1ccccc1	-5%
CC1CCCC(C)N1C(=O)CSc1nnc(NC(=O)c2cccs2)s1 (centres undefined)	-3%
COc1ccccc1N1CCN(S(=O)(=O)c2ccc(F)cc2)CC1	3%
COc1ccc(C(c2nnnn2Cc2cccs2)N2CCC(C(N)=O)CC2)c(OC)c1 (centres undefined)	-2%
Cc1ccc2cccc(S(=O)(=O)NC3CCS(=O)(=O)C3)c2n1 (centres undefined)	25µM*
COc1ccc(C(=S)N2CCCC2)cc1C	-14%
CCN(CC)S(=O)(=O)c1cccc(C(=O)N2CC(O)CC2C(=O)O)c1 (centres undefined)	-2%
CN1CCCC(OC(=O)c2cc(Cl)ccc2Cl)C1 (centres undefined)	7%

2 compounds picked at random from those above, as already listed:
smiles	HSD17B inh
O=C(CSc1nnc2ccccn12)Nc1ccccc1C(=O)NC1CC1	?
Cn1c(CNc2nc(-c3ccccc3)cs2)nnc1SCC(=O)c1ccccc1	-5%

The listing picks up, repeating the 3 entries before the break.
smiles	HSD17B inh
COc1ccc(C(=S)N2CCCC2)cc1C	-14%
CCN(CC)S(=O)(=O)c1cccc(C(=O)N2CC(O)CC2C(=O)O)c1 (centres undefined)	-2%
CN1CCCC(OC(=O)c2cc(Cl)ccc2Cl)C1 (centres undefined)	7%
COc1ccc(NC(=O)C2CCCN(C(=O)NC3CCCCC3)C2)cc1OC (centres undefined)	9%
CC(=O)Nc1cccc(NC(=O)C2CC(=O)N(c3ccc(C)cc3)C2)c1 (centres undefined)	-1%
CN(C)S(=O)(=O)c1ccc(/C(O)=C2/C(=O)C(=O)N(CCN3CCCCC3)C2c2cccnc2)cc1 (centres undefined)	-2%
COc1cc(OC)cc(C(=O)N2CCN(Cc3cccc(F)c3)CC2)c1	-5%
Cn1c(CN2CCOCC2)nnc1SCC(=O)NCCc1ccccc1	-3%
COc1ccc(OC)c(NC(=O)C2C3C=CC(C3)C2C(=O)NCc2ccccn2)c1 (centres undefined)	-4%
CC(C)(C)NC(=O)NC(=O)COC(=O)COc1ccc2c(c1)CCC2	3%
COc1ccc(S(=O)(=O)N2CCCC(C(=O)O)C2)cc1Cl (centres undefined)	-13%
CS(=O)(=O)Nc1ccccc1C(=O)NCc1ccco1	25µM*
CCOc1ccc2cc(S(=O)(=O)n3ccnc3C)ccc2c1	?
Oc1oc(-c2ccco2)nc1C=Nc1ccccc1	-7%
CC(=O)Oc1ccc(C(=O)Nc2nnc(C)s2)cc1	2%
CCc1ccc2[nH]c(=O)c(CN(Cc3ccccc3)Cc3nnnn3Cc3ccco3)cc2c1	?
COc1ccc(C(=O)Nc2cccc(C)c2)cc1	3%
CCOc1cc(-c2nc(-c3ccc(C)nc3OC)no2)cc(OCC)c1OCC	7%
CCCCCCNC(=O)Cc1c(O)c2ccccc2[nH]c1=O	32µM*
O=C(CN1CCOc2ccccc21)N1CCN(c2cccc(Cl)c2)CC1	-12%
O=C(NCc1ccc(F)cc1)C1CCCN(C(=O)Nc2ccccc2)C1 (centres undefined)	-1%
CC(=O)Nc1cc(-c2nn3c(C)nnc3s2)ccc1C	9%
Cc1csc(NC(=O)CSc2nnc(-c3ccoc3C)o2)n1	5%
O=C(O)CN(CC(=O)O)c1ccccc1	6%[11.4 µM]
Cc1cc(C)n(-c2nc(NCC(C)O)c3c4c(sc3n2)CCCC4)n1 (centres undefined)	?
CCOC(=O)C1=C(C)NC(=O)NC1c1ccc(Cl)cc1Cl (centres undefined)	-1%
COCCN(CCOC)Cc1c(C)[nH]c2ccccc2c1=O	0%

Going on with the list:
Molecule | HSD17B inh
Cc1ccc(S(=O)(=O)Cn2nnnc2C(C(C)C)N2CCSCC2)cc1 (centres undefined) | 6%
Cc1cc(Br)ccc1OCC(=O)N(Cc1nc(-c2ccccc2)no1)C(C)C | -5%
COC(=O)c1cccc(NC(=O)C2COc3ccccc3O2)c1 (centres undefined) | -3%
COc1ccc(-n2c(Cc3cccn3C)nnc2SCC(=O)Nc2cccc(NC(C)=O)c2)cc1 | -8%
O=C(NCc1cccnc1)c1ccc(S(=O)(=O)N2CCOCC2)cc1 | 3%
CCC(C)NC(=O)CC1Oc2ccc(Cl)cc2NC1=O (centres undefined) | -5%
CC(C)(C)c1csc(N(CCC#N)CCC#N)n1 | 8%
CCC1CCCCN1CC(=O)Nc1cc(C)nn1-c1nc(C)cc(C)n1 (centres undefined) | 11%
COC(=O)[C@@]1(Cc2ccc(OC)cc2)[C@H]2c3cc(C(=O)N4CCCC4)n(Cc4c(CO)[nH]cc(C)c4=O)c3C[C@H]2CN1C(=O)c1ccccc1 | 14%
Cn1c(=O)c2c(nc(CN3CCN(Cc4ccccc4)CC3)n2Cc2ccccc2)n(C)c1=O | ?
C=CC[C@@H]1C=C[C@@H](O/N=C2/C[C@@H](O)[C@@H](O)[C@@H]3[C@@H]4C(=O)N(CC)C(=O)[C@H]4CC[C@@H]23)[C@@H](CO)O1 | 2%[11.4 µM]
O=C(NCCN1CCOCC1)C1CCC(=O)N1C1CCCCC1 (centres undefined) | 13%
CCC(C)c1ccc(O)c(NC(=O)c2cncc(Br)c2)c1 (centres undefined) | -8%
COC(=O)c1ccc(CN(C)S(=O)(=O)c2ccc(C)cc2)o1 | -4%
COc1ccccc1N1CCN(C(CNC(=O)C2CCCCC2)c2cccnc2)CC1 (centres undefined) | ?
O=C(c1cccc(S(=O)(=O)N2CCCC2)c1)c1cccc(S(=O)(=O)N2CCCC2)c1 | 17%
Cc1cc(N2CCN(c3nc(N4CCOCC4)nc4ccccc34)CC2)c2ccccc2n1 | 13µM*
COc1ccc(C(=O)N2CCN(Cc3cc(OC)c(O)c(OC)c3)CC2)cc1OC | -9%
COC(=O)C1(C(F)(F)F)N=C2Sc3ccccc3N2C(N2CCOCC2)=N1 (centres undefined) | 6%
N=c1c2c3c(sc2ncn1CCN1CCOCC1)CCCC3 | -18%
Cc1ccc(CCP(=O)(O)CN2CCOCC2)cn1 | 0%
CC1(C)OC(=O)N(CCc2ccccc2)C1(C)O (centres undefined) | 8%
COc1ccc(C(=O)N(c2ccccc2)C2C=CS(=O)(=O)C2)cc1 (centres undefined) | 5%
Cn1c(=O)c(C(=O)NCCO)c(O)c2ccccc21 | -8%
NC(=O)c1oc2ccccc2c1NC(=O)c1ccc(F)cc1 | ?
COc1cccc(-c2noc(C3CCCN(S(=O)(=O)c4cccc(Cl)c4C)C3)n2)c1 (centres undefined) | 1%
O=C(NCc1n[nH]c(=S)n1-c1cccc(Cl)c1)c1ccc(S(=O)(=O)N2CCCC2)cc1 | -10%
O=C(Cn1cnc2c(nnn2Cc2ccc(Cl)cc2)c1=O)N1CCCc2ccccc21 | 1%
Cc1noc(C)c1C(=O)N1CCC[C@@]2(CCN(c3ccccn3)C2)C1 | ?
O=C(Oc1ccc2ccc(=O)oc2c1)N1CCOCC1 | ?
Cc1cc(C)nc(SCC(=O)c2ccc(O)cc2O)n1 | -5%
Cc1ccc(-c2noc(CCC(=O)Nc3ccccc3N3CCN(C)CC3)n2)cc1 | 2%
Cn1c(=O)c(-c2ccc(Cl)cc2)nc2cnc(OCc3ccccc3)nc21 | ?
CC(C)NC(=O)N1CC2(CCN(C(=O)c3ccco3)CC2)C1 | 2%
COc1ccc(N2CCN(CC(O)c3c[nH]c4ccc(OC)cc34)CC2C)cc1 (centres undefined) | 9%
CCCCNC(=O)c1ccc(N2CCOCC2)c(NS(=O)(=O)c2ccc(OC)cc2)c1 | -4%
Cc1cc(C(C)(C)C)c(OCCCN2CCOCC2)c(C(C)(C)C)c1 | 9%[11.4 µM]
C=CCNC(=O)c1ccncc1 | 16%
Cc1nnc(SCc2cnc(-c3ccccc3)o2)[nH]c1=O | 1%
O=C1c2ccccc2N(Cc2ccc(Cl)cc2)C2=NCCN12 | -10%
O=C(Nc1nc(-c2ccc(S(=O)(=O)N3CCCC3)cc2)cs1)c1ccco1 | 1%
O=c1[nH]cc(COCc2ccccc2)c(=O)[nH]1 | 10%
N#CCSC1=Nc2ccccc2C2=NC(CCC(=O)N3CCN(c4ccccc4)CC3)C(=O)N12 (centres undefined) | -21%
COCC(=O)N(c1ccc(C(C)C)cc1)C1C=CS(=O)(=O)C1 (centres undefined) | 0%
CCOC(=O)C1C(=O)CC(C)(O)C(C(=O)OCC)C1c1cc(Br)ccc1OC (centres undefined) | -3%
O=C(O)CCn1c(=O)sc2ccccc21 | 0%
COc1ccccc1N1C(=O)CC(N2CCc3ccccc32)C1=O (centres undefined) | ?
Cc1cc(C)c(S(=O)(=O)Nc2ccc(O)cc2)cc1C | -3%
CCOC(=O)[C@H]1CCC[C@@H](NS(=O)(=O)c2ccc(NC(C)=O)cc2)C1 | 6%
Cc1cccc(CS(=O)(=O)Cc2ccc(C(=O)NCCN3CCCCC3C)o2)c1 (centres undefined) | 4%
Nc1ccccc1SCC(=O)N1CCc2ccccc21 | -11%
COc1ccc(C(=O)NCCc2nnc(SCc3nc4ccccc4c(=O)[nH]3)n2C)cc1 | 9%
Cc1cc(C(=O)CSc2nnc(N)s2)c(C)n1CCc1ccc(Cl)cc1 | 13µM*

Compound activity as filed in PubChem BioAssay.
